# Screening results from PubChem.
# SARS PLP yeast: blocks SARS-CoV papain-like protease in a yeast assay; S. cerevisiae expressing SARS-CoV PLpro, growth rescue; control for the full effect not named in the record; Potency, µM (top dose mostly 32.9 µM), inactives show at the highest dose activity, positive = growth rescue; actives 0.19% (n = 330,000); AID 485353; also: 0% is about no effect; nearly all actives have a fitted effect of over 55% in size; growth read by luminescence after 48 h
# NS1 function inh: blocks influenza NS1 protein function; S. cerevisiae slowed by influenza A NS1, growth recovery by OD600; Potency, µM (titrated, usually from 46.1 µM), for the others: top-dose activity, positive = more growth; actives 0.4% (n = 270,000); also: actives are rising curves; nearly all actives have a fitted effect of over 50% in size
#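 A cell-based growth assay was used: compounds that relieve NS1-induced slow growth of budding yeast raise OD600. Assay medium was yeast nitrogen base with ammonium sulphate and -URA supplement, pH 6.0, with 2% galactose.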
# RE007 growth inh: less growth of the S. pombe RE007 Vpr strain; Potency, µM (doses to about 92.2 µM), for the others: at the top dose activity change, negative = less growth; S. pombe RE007 Vpr strain, BacTiter-Glo ATP luminescence, 24 h; control for the full effect not named in the record; AID 651644; actives 0.21% (n = 360,000); active = well fitted falling curve with a large enough effect; inconclusive = small, poorly fitted or top-dose-only effect; inactive = no such curve, though single readings can be large or run the other way;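 also: % is scaled to controls: 0 for no effect and ±100 for the full control effect; nearly all actives have a fitted effect of over 50% in size; the assay follows cell death caused by Vpr and the record does not say whether a fall means rescue or toxicity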
#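 Fission yeast strain RE007, carrying one chromosomally integrated HIV-1 vpr copy, was seeded at OD 0.01 in PMG+AL medium with 23 nL pinned compound. After 24 h at 30 °C and 99% humidity, viability was read by BacTiter-Glo luminescence.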
# Marburg entry inh: blocks Marburg virus binding to or entry into cells; Marburg virus pseudotyped entry inhibition, cell reporter; control for the full effect not named in the record; about a third of the inactives were read at about 46 µM; Potency, µM (top dose mostly 37.8 µM), for inactives: top-dose activity change, negative = inhibition, actives largely listed as inhibitors; actives 1.8% (n = 300,000); active = well fitted inhibition curve with a large enough effect; inconclusive = small, poorly fitted or top-dose-only effect, or effect the other way; inactive = flat fitted curve, though single readings scatter; tested in HEK293 cells; about a fifth of its hits are not listed in these tables; also: % is scaled to controls: 0 for no effect and ±100 for the full control effect; luciferase read-out
# Cruzain Triton: cruzain (T. cruzi) inhibition with detergent | Potency, µM, without a hit: max response, negative = inhibition, usual class: inhibitors | purified cruzain, Z-FR-AMC fluorescence, 0.01% Triton | AID 1478 | actives 0.43% (n = 200,000); active = well fitted curve in the direction sought with a large enough effect; inconclusive = small, poorly fitted or top-dose-only effect, or another doubt; inactive = no such curve, though single readings can be large; an effect the other way counts as inactive or inconclusive;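 also: plate controls were neutral wells for no effect and buffer without enzyme for full effect; nearly all actives have a fitted effect of over 40% in size; top concentration of the series not given in the record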
# Target sequence (P25779 123-467 limits assumed): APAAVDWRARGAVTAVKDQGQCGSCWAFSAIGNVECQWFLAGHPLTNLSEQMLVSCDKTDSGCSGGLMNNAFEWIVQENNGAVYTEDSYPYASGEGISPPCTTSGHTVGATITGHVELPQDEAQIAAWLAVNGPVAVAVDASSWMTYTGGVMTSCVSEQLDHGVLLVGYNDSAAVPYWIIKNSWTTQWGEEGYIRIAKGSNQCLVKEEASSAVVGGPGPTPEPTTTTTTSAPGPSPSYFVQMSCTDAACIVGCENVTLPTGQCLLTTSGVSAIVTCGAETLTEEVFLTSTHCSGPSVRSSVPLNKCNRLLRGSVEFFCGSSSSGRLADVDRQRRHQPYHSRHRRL
#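 Compounds were screened in titration against cruzain (1.5 nM) with 0.01% Triton X-100 to counter colloidal aggregation. Activity was the AMC fluorescence increase over 60 s after adding 2 uM Z-FR-AMC at pH 5.5.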
# LASV entry inh: blocks Lassa virus binding to or entry into cells; Lassa virus pseudotype entry inhibition, cell reporter; control for the full effect not named in the record; Potency, µM (series often up to 37.9 µM), without a hit: at the top dose activity change, negative = inhibition, actives largely listed as inhibitors; actives 1.2% (n = 300,000); AID 540256; active means well fitted inhibition curve with a large enough effect; inconclusive means small, poorly fitted or top-dose-only effect, or effect the other way; inactive means flat fitted curve, though single readings scatter; tested in HEK293 cells; also: % is scaled to controls: 0 for no effect and ±100 for the full control effect; nearly all actives have a fitted effect of over 50% in size; luciferase read-out
# StopGo reporter: FMDV 2A StopGo reporter, luciferase signal; human cells with a luciferase reporter of 2A StopGo recoding; control for the full effect not named in the record; Potency, µM (titrated, usually from 57.9 µM), for the others: at the top dose signal change, negative = less light; actives 1.2% (n = 410,000); AID 1159524; active = well fitted falling curve with a large enough effect; inconclusive = small, poorly fitted or top-dose-only effect; inactive = no such curve, though single readings can be large or run the other way; tested in HEK293T cells; also: % is scaled to controls: 0 for no effect and ±100 for the full control effect; nearly all actives have a fitted effect of over 45% in size; luciferase light after 4 h
# Cruzain noTriton: inhibitors of Trypanosoma cruzi cruzain without detergent. actives 2.3% (n = 200,000). AID 1476. P25779. purified cruzain, Z-FR-AMC fluorescence, no detergent. Potency, µM, without a hit: max response, negative = inhibition, actives largely listed as inhibitors; active = well fitted curve in the direction sought with a large enough effect; inconclusive = small, poorly fitted or top-dose-only effect, or another doubt; inactive = no such curve, though single readings can be large; an effect the other way counts as inactive or inconclusive;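 also: plate controls were enzyme without inhibitor for no effect and buffer without enzyme for full effect; nearly all actives have a fitted effect of over 40% in size; top concentration of the series not given in the record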
#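 Detergent-free condition (0.00005% Triton X-100) in acetate buffer pH 5.5 with DTT. 1.5 nM enzyme and compound were pre-mixed 15 min, then 2 uM Z-FR-AMC substrate added; reaction progress from fluorescence change between first and third reads (60 s).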
# * hit, by the source's call; ? = inconclusive; · = not tested or not shown; & = joins results of further samples; [ ] = another dose, or the depositor's remark. Unless noted, calls follow the shape of the dose curve; as a rule, active means well fitted rising curve with a large enough effect; inconclusive means small, poorly fitted or top-dose-only effect; inactive means no such curve, though single readings can be large or run the other way. Potency is read from the fitted curve at half-maximal effect.
SMILES,SARS PLP yeast,NS1 function inh,RE007 growth inh,Marburg entry inh,Cruzain Triton,LASV entry inh,StopGo reporter,Cruzain noTriton
NCCCCc1ccc2ccc3cccc4ccc1c2c34,-6%,·,1%,11%[46.1 µM],·,11%,-6%,·
N#Cc1cccc(Oc2ccc(S(=O)(=O)N3CCCC3)cn2)c1,-1%,·,-17%,9%,·,0%,-25%,·
Cc1ccc(N(CC(=O)Nc2ccc(OC(F)(F)F)cc2)S(=O)(=O)c2c(C)noc2C)cc1,·,·,·,-8%[46.1 µM],-11%,6%[46.1 µM],?,-11%
CC(C)N1CCN(Cc2ccc(C#CC(C)(C)O)cc2)CC1CCO (stereo not given),0%,2%,4%,·,·,·,-8%,·
CCOCCCn1c(=N)c(C(=O)NCc2ccc3c(c2)OCO3)cc2c(=O)n3cccc(C)c3nc21,6%,4%,5%,5.2µM*,-10%,?,-15%,-18%
CCN1CCN(c2c(Cl)cccc2NC(=O)c2ccc(Br)o2)CC1,-5%,-58%,-4%,-27%&-27%,0.8%,0%,-24%,-7%
CCCC(C(=O)NCc1ccccc1)N(C(=O)Cn1nnc(-c2cccs2)n1)c1ccc2c(c1)OCCO2 (stereo not given),?,19%,5%,?,0.8%,1%,6%,20µM*
O=C(CCOc1ccc(F)cc1)Nc1nccs1,1%,-2%,11%,2%[46.1 µM],·,1%[46.1 µM],40%[activator],·
COc1ccc(C(=O)CSc2ccc3nnc(-c4cccnc4)n3n2)cc1,-2%,·,23%,?,·,-11%[46.1 µM],-16%,·
C1CCN(Cc2nnnn2CC2CCCO2)CC1 (stereo not given),1%,2%,3%,0%,·,-9%[46.1 µM],5%,·
CCCCc1ccc(NC(=O)c2c(C)noc2C)cc1,-10%,-40%,9%,8%,-2.4%,-13%,27%,14%
O=C(CC1N=C2c3ccccc3N=C(SCc3ccc(F)cc3)N2C1=O)NCCc1ccccc1 (stereo not given),·,·,·,·,-2.9%,?,-28%,4%
O=C1CCCc2c1[nH]c1ccc(CN3CCCCC3)cc21,-3%,-1%,14%,-16%,-3.6%,?,43%[activator],0%
COc1ccc(Cc2nnc(SCC(=O)N3CCCCC3)o2)cc1,0%,-5%,4%,·,·,·,6%,·
CCOc1ccccc1NC(=O)C1CCCN(S(=O)(=O)c2ccc(-n3cnnn3)cc2)C1 (stereo not given),-2%,4%,1%,-13%[46.1 µM],·,-23%,-22%,·
C=CCn1c(SCC(N)=O)nnc1-c1cc2c(s1)CCC(CC)C2 (stereo not given),-14%,-3%,2%,?,-3.3%,9%,58%[activator],-1%
COc1cc2c(cc1NC(=S)Nc1ccccc1C)oc1ccccc12,-7%,-1%,-15%,?,-3.5%,7%,25%,?
CCOC(=O)Cn1nnnc1CN1CCN(c2ccc(OC)cc2)CC1,1%,1%,1%,-1%[46.1 µM],·,-4%[46.1 µM],11%,·
Cc1cc(C)nc(/N=C(\N)Nc2ccc3c(c2)OCCO3)n1,0%,2%,12%,?,·,-20%,-22%,·
CN(CC(=O)O)S(=O)(=O)c1ccc2[nH]c(=O)c(=O)[nH]c2c1,3%,-4%,-4%,·,·,·,-16%,·
O=C(NCc1ccccn1)C(=O)Nc1ccccc1,-2%,-4%,-18%,?,·,20%[46.1 µM],34%[activator],·
O=[N+]([O-])c1ccc(S(=O)(=O)N2CCN(Cc3ccco3)CC2)cc1,1%,-8%,-8%,3%&3%[46.1 µM],·,2%[46.1 µM],-6%,·
COc1ccc2c(c1)CC(C(=O)N1CCC(C(N)=O)CC1)CO2 (stereo not given),·,·,·,·,0.9%,12%[46.1 µM],-7%,-7%
CC(/C=N/NC(=O)COc1ccccc1C)=N\NC(=O)COc1ccccc1C,-1%,16%,0%,·,·,·,-20%,·
CCN(CC)Cc1c(O)c(Cl)cc2c(C)c(C)c(=O)oc12,-1%,3%,-10%,-13%,?,-1%,0%,?
CCCc1cc(-c2n[nH]c(=S)n2Cc2ccccc2)cs1,18%,-2%,17%,2%,-14%,?,14%,-10%
Cc1nc(SCC(=O)c2cc3ccccc3oc2=O)c(C#N)c(C)c1C(=O)Nc1ccccc1,-5%,4%,·,0%,-6.0%,·,·,13µM*
Cc1cc2cc(CCNC(=O)C3c4ccccc4Oc4ccccc43)c(=O)[nH]c2cc1C,6%,10%,·,3%,1.2%,2%,·,-27%
CC(=O)Nc1ccc(NC(=O)COC(=O)c2n[nH]c3ccccc23)cc1,-4%,5%,14%,·,·,·,0%,·
CCN(CC)c1ccc2cc(-c3nnc(Nc4ccc(C)cc4)s3)c(=O)oc2c1,·,·,·,·,1.1%,-2%[46.1 µM],-14%,1%
COc1ccc(-c2ccnc3ncnn23)cc1,13%,·,-8%,-5%[46.1 µM],·,·,31%[activator],·
Cc1cccc(NC(=O)COC(=O)CCc2ccc(S(=O)(=O)N3CCOCC3)cc2)c1C,-1%,-3%,1%,18%[46.1 µM],·,-5%,-19%,·
O=C1c2ccccc2NC(c2cc(Cl)cc(Cl)c2O)N1Cc1cccnc1 (stereo not given),-1%,3%,8%,?,·,24%[46.1 µM],-13%,·
COc1ccc(NC(=O)CSc2ccc3nnc(-c4cccnc4)n3n2)cc1,1%,-2%,-5%,·,·,·,29%,·
O=C(Nc1ccc([N+](=O)[O-])cc1)Nc1nc(-c2ccc(Cl)s2)cs1,-16%,28%,-7%,?,-0.6%,?,?,5µM*
Cc1ccc(C(=O)Nc2ccc(C(=O)N3CCCCC3)cc2)cc1,0%,-3%,-1%,·,·,·,48%[activator],·
CCc1noc(C)c1C(=O)N1CC(C)SC1=Nc1ccc(Cl)cc1 (stereo not given),-4%,·,11%,-23%,·,-9%,-22%,·
COCCNC(=O)C(c1ccc(C)o1)N(CCOC)C(=O)Cn1nnc2ccccc21 (stereo not given),1%,-2%,5%,17%,·,-24%,-19%,·
O=C(Nc1cccc(Br)c1)c1cc(=O)c2ccccc2o1,2%,-11%,3%,·,·,·,-3%,·
CCC1C(=O)n2nc(-c3ccccc3)cc2N=C1C (stereo not given),-29%,-3%,-2%,-8%,-1.6%,9%,·,2%
COc1ccc(/C=C/C(=O)Nc2cccc(F)c2)cc1,·,·,·,·,-9.9%,-8%[46.1 µM],-38%,-9%
O=[N+]([O-])c1cn(Cc2ccccc2)cn1,-2%,5%,17%,2%,-1.1%,3%,-4%,1%
Cc1cc(C)cc(C(=O)NCC(=O)OCC(=O)NCC(F)(F)F)c1,2%,·,0%,-9%[46.1 µM],·,·,-7%,·
Cc1ccc(C(=O)OCC(=O)Nc2cc(C(C)(C)C)nn2-c2ccccc2)c(O)c1,-12%,·,-9%,-21%,·,-11%,?,·
Cc1ccc(OCC(=O)OC(C)C(=O)NC2CCCCC2C)cc1C (stereo not given),9%,·,0%,17%,·,5%,-21%,·
Cn1c(SCC(=O)N2CCCCC2)nc2cccnc21,0%,-10%,7%,-4%[46.1 µM],2.7%,3%,3%,-9%
COc1ccc(N2CCN(Cc3nc4sc(C)c(C)c4c(=O)[nH]3)CC2)cc1,0%,5%,-18%,4%,·,-13%,-2%,·
O=c1oc2ccccc2nc1/C=C(\O)c1ccccc1,-7%,-99%,-24%,·,·,·,6%,·
Cc1cc(C)n(-c2ccn(Cc3ccc(Cl)cc3Cl)c(=O)n2)n1,0%,-50%,5%,?,-4.3%,4%,-27%,-2%
CCN(CC)C(=O)C1CCN(Cc2cn(C)nc2-c2ccc(Oc3ccccc3)cc2)CC1,1%,-3%,-6%,·,·,·,-10%,·
O=C(CC(Cc1ccccc1)C(=O)O)NCCc1ccc2c(c1)OCO2 (stereo not given),5%,3%,16%,19%,-3.6%,0%,8%,1%
COc1ccc(CCN(C)CCC(=O)Nc2cccc(C)c2)cc1OC,1%,0%,6%,·,·,·,-22%,·
O=C(Nc1ccc(Cl)cn1)c1ccc(-c2cc(Cl)ccc2Cl)o1,6%,9%,-18%,14%,-2.0%,18%,-2%,?
Cc1ccc(Nc2cc(C)nn2-c2nc(C)cc(C)n2)cc1,-23%,-154%,?,?,0.7%,?,0%,?
O=C(NC(=O)c1ccccc1)OCC(F)(F)F,5%,-1%,1%,11%[46.1 µM],1.9%,-19%,2%,3%
Cc1cc(F)ccc1S(=O)(=O)Nc1nc2ccccc2nc1Cl,0%,-85%,3%,-17%[46.1 µM],·,14%[46.1 µM],10%,·
O=C1NC(=S)NC(=O)C1=Cc1ccc(Br)s1,18%,19%,2%,·,·,·,?,·
Cc1cc(C)c(-c2n[nH]c3c2C(c2ccccc2F)N(Cc2ccco2)C3=O)c(O)c1 (stereo not given),·,·,·,?,-13%,?,-8%,?
Fc1ccc(NC(=S)N2CCOCC2)c(F)c1,-2%,1%,15%,·,·,·,-13%,·
CN1CCN(C(=O)CCN2C(=O)/C(=C\c3ccc(Cl)cc3Cl)SC2=S)CC1,-2%,-1%,-3%,1%[46.1 µM],·,?,35µM*,·
# The list continues:
SMILES,SARS PLP yeast,NS1 function inh,RE007 growth inh,Marburg entry inh,Cruzain Triton,LASV entry inh,StopGo reporter,Cruzain noTriton
COc1ccc(Cl)cc1N1C(=O)/C(=C/c2sccc2C)N=C1SCC(=O)NC1CC1,·,·,1%,10µM*,·,?,-11%,·
COc1ccccc1NC(=O)N1CCN(S(C)(=O)=O)CC1,0%,4%,-5%,16%[46.1 µM],·,-16%,-19%,·
COC(=O)[C@H](Cc1ccccc1)NC(=O)C1(OC(C)=O)CC(OC(C)=O)C(OC(C)=O)C(OC(C)=O)C1 (stereo not given in full),1%,-3%,5%,-19%[46.1 µM],·,1%[46.1 µM],-1%,·
O=C(Cn1c(=O)[nH]c2sc3c(c2c1=O)CCCC3)NCC1CCCO1 (stereo not given),-17%,9%,9%,·,·,·,-2%,·
CC(c1ccccc1)N1C(=O)NC(NC(=O)C(C)(C)C)(C(F)(F)F)C1=O (stereo not given),-12%,8%,-12%,-17%,-3.7%,-1%,0%,8%

# Random draw from the library, and some 4.7% of all compounds hit somewhere here.
